Yeast UUG start – alters start codon recognition fidelity in yeast; S. cerevisiae UUG-firefly luciferase reporter, luminescence/redox ratio; AID 602363; activity score, % at 18.7 µM; 0.13% of 350,000 active;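 active = replicate mean at a twofold rise or more, about +100% in these data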;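 also: firefly luciferase made from a UUG start codon reports start codon fidelity; reporter light over untreated wells divided by growth signal over untreated wells; some hits fall short of that in this replicate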
Rce1 inhib – yeast Ras-converting enzyme inhibition. Q03530. yeast membranes, quenched prenylated peptide cleavage fluorescence. calls only. 0.27% of 290,000 active;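 active = fall in fluorescence gain of 50% or more versus controls, with final raw signal at or below 3038400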;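 also: plate controls were neutral control wells for no effect and wells lacking membranes for full effect; tested at 10 µM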
Target sequence (Q03530 whole entry, looked up): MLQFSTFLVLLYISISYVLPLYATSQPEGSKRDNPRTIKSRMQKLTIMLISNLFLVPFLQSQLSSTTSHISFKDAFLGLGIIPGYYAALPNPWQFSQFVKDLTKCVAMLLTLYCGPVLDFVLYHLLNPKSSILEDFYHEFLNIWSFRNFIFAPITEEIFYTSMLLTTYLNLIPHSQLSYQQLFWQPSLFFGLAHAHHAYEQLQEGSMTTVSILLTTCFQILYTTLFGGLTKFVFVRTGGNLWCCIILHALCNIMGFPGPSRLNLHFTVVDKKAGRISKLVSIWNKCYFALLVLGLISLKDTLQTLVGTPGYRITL
CSC inhib – cancer stem cell inhibition. inhibition, % at 7.5 µM. 1.1% of 300,000 active. cancer stem cell-like cells viability, luminescence;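 active = mean at 75% or more and at least half the replicates too; tested in HMLE shEcad cells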;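 also: 0% = median of negative and 100% = median of positive control wells; the first replicate is given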
PABP polyA inh – PABP-poly(A) binding inhibition | P11940 | PABP-poly(A) RNA binding, fluorescence polarization | inhibition, % at 35 µM | 1% of 290,000 active | AID 2014;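 active = 50% or more with normal probe brightness, or confirmed in later tests; about a fifth of its hits are not listed in these tables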;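 also: calls also rest on retests at 20 µM and on dose response follow-up; controls were probe without protein and protein plus probe with vehicle; some compounds called inactive have numbers as strong as hits; many hits fall short of the cut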
eIF4H FP inh – inhibitors of RNA binding by human eIF4H; inhibition, % at 35 µM; Q15056; 0.94% of 290,000 active; eIF4H fluorescence polarization binding assay;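 active = 50% or more with normal probe brightness, or confirmed in later tests; about a fifth of its hits are not listed in these tables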;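 also: calls also rest on retests at 20 µM and on dose response follow-up; 0% = protein and probe with vehicle and 100% = probe without protein; strong numbers were not always called active; many hits fall short of the cut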
MT1-MMP act inh – blocks activation of human MT1-MMP; P50281; HT1080 RFP-PRO-GFP cells, GFP/RFP ratio fluorescence, overnight; percent of plate control window, DMSO zero; GFP/RFP ratio change, % at 20 µM; 0.061% of 360,000 active;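 active = GFP/RFP ratio change of at least 30% with cell ATP level not reduced by more than half and red fluorescence within 50% of control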; also: strong numbers were not always called active
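Material – HT1080 RFP-PRO-GFP cells · Control set – DMSO wells and RFP-L50D-GFP cells · Incubation – overnight cell settling, then overnight compound exposure, 37 °C, 5% CO2 · Compound dosing – single-point 20 µM compound, 1% DMSO · Read-out – GFP/RFP fluorescence ratio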
Env fusion inh – inhibitors of HIV Env-mediated cell fusion. inhibition, % at 12.3 µM. HeLa-JRFL Env/CEM21 cell fusion, luciferase. 1.1% of 360,000 active;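 active = mean replicate inhibition score of at least 50 and every replicate individually at or above 50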;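 also: 0% = plate neutral controls and 100% = maraviroc near 300 nM; one replicate is shown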
eIF4H FP inh retest – also measured in eIF4H FP inh; calls as there; inhibition, %; compound at 20 µM; confirmation average;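 mean of two retest wells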
PABP polyA inh retest – further read-out of PABP polyA inh, marked with its call; inhibition, %; compound at 20 µM; confirmation repeats;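 mean of two retest wells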
MT1-MMP act inh RFP – second read-out of MT1-MMP act inh, no call of its own (marks repeat the call); RFP signal change, %; measured here: RFP expression control read;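 0 = vehicle wells; hits needed this value within 50% of zero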
Active calls of the source: *; i = inactive; / = no result given. The list is partial (hit frequency here may not be typical).

SMILES	Yeast UUG start	Rce1 inhib	CSC inhib	PABP polyA inh	eIF4H FP inh	MT1-MMP act inh	MT1-MMP act inh RFP	Env fusion inh	others
O=C(/C=C/c1ccc2c(c1)OCCO2)N1CCN(c2ccc(F)cc2)CC1	-15	i	-1	1	-6	-1	-1	11
CC(C)N1C(=O)CCC1C(=O)N1CCN(c2ccc(F)cc2)CC1 (configuration not stated)	0	i	-13	2	1	3	2	10
CN(CCNC(=O)CN1C(=O)CSc2ccc(S(=O)(=O)N3CCCC3)cc21)Cc1ccccc1	/	i	-11	-10	-8	-1	0	7
Cc1ccc(C)c(NC(CC(=O)c2ccccc2)C(=O)OCC(=O)c2cccs2)c1 (configuration not stated)	-7	i	-6	-3	-6	0	-1	-7
Cc1cc(C)c(OCC(=O)Nc2ccccc2N2CCOCC2)c(C)c1	-14	i	19	3	7	-13	-11	36
C/C=C(/C)C(=O)O[C@@H]1[C@H](OC(C)=O)c2c(ccc3ccc(=O)oc23)OC1(C)C	-6	i	-7	-2	-4	3	-2	-26
CN(C)C1=NCCN1CC1CCCCCC1	-16	/	-7	/	/	1	6	-20
COc1ccc(/C=C/C(=O)NC(=S)NNC(=O)c2cc(OC)c(OC)c(OC)c2)cc1	-7	i	7	-5	12	2	-1	-39
CCOC(=O)c1csc(NNC=O)n1	/	i	-4	-14	-8	0	2	-6
O=C(CSc1nnc(CNc2ccc(Cl)cc2)o1)Nc1nc2c(s1)CCCC2	-17	/	36	0	9	7	1	-42
O=C(CN1CCCCC1)Nc1cccc(Br)c1	2	i	4	4	-6	-1	2	/
CN1C(=O)c2ccc(C(=O)Nc3ccc4c(c3)OCO4)cc2C1=O	-27	i	-7	4	-7	-3	4	-25
COc1cc(OC)cc(C(=O)NCc2ccc3c(c2)cc(C)n3C)c1	/	i	-8	-2	69	26	63	1	eIF4H FP inh retest=-8;PABP polyA inh retest=-4
C=CCOC(=O)C1=C(C)NC(=O)NC1c1cc(Cl)cc(Cl)c1OC (configuration not stated)	-3	i	-1	14	-8	-6	-8	10
Cc1cc2oc(=O)cc(CNc3ccccc3F)c2cc1O	/	i	30	4	0	-2	-3	-4
CCCn1cc(C(=O)N(C)C2CCCN(Cc3ccccc3F)C2)c(C)n1 (configuration not stated)	-6	i	-13	-6	10	-5	2	/
Cc1ccc(C)c(SCC(=O)OCC(=O)NCCNC(=O)COC(=O)CSc2cc(C)ccc2C)c1	/	i	-5	/	/	-3	5	-1
COc1ccc(OCCn2c(=N)n(CCO)c3ccccc32)cc1	-19	i	-20	-3	3	-9	-1	/
Cc1nc(NC(=O)C2CC2)sc1C(=O)Nc1ccccc1	6	i	-9	8	-14	0	1	-16
COc1ccccc1N1CCN(C(=O)C2Cc3ccccc3CN2C(=O)c2ccco2)CC1 (configuration not stated)	15	/	-15	/	/	10	3	/
CN(/N=C/c1ccco1)C1=NS(=O)(=O)c2ccccc21	-9	i	-4	14	-9	-5	0	-4
Cc1ccccc1OCC(=O)Nc1sc2c(c1C#N)CCC2	-16	i	19	-2	-4	-3	0	/
COc1ccc(C)cc1NC(=O)CNC(=O)[C@@H]1Cc2ccccc2CN1	-4	i	-1	-5	-6	3	4	-23
O=C(CSc1nnc2c(n1)[nH]c1ccccc12)Nc1nncs1	-17	i	/	8	-4	1	-2	-10
Cc1ccc(N=C2NC(=O)CC(C(=O)Nc3ccc4c(c3)OCO4)S2)cc1 (configuration not stated)	3	i	-36	0	0	-1	-1	7
(list continues)
SMILES	Yeast UUG start	Rce1 inhib	CSC inhib	PABP polyA inh	eIF4H FP inh	MT1-MMP act inh	MT1-MMP act inh RFP	Env fusion inh	others
Cc1nn(-c2ccc(F)cc2)c2sc(C(=O)O)cc12	-7	i	-14	0	-2	2	-1	/
CCc1ccc(N(CC(=O)NC(C)(C)C)C(=O)CCC(=O)Nc2ccccn2)cc1	-16	i	-10	0	16	-3	-1	3
Cc1ccc(NC(=O)C2C3CCCC2C3c2ccccc2)c(C)c1 (configuration not stated)	/	i	-11	0	7	-5	-6	-3
CCOc1ccc(NC(=O)CCC(=O)c2ccc(F)cc2)cc1	-5	i	-6	-5	-1	2	-3	-3
C[C@H]1COC(=O)[C@H](Cc2ccc(F)cc2)C/C=C\C[C@H](CC(=O)N(CCO)Cc2ccccc2)C(=O)N1	-8	/	-12	/	/	1	3	5
COc1cc(C2C3=C(CC(C)(C)CC3=O)NC3=C2C(=O)c2ccccc23)ccc1O (configuration not stated)	-6	i	-9	-2	3	10	0	12
COc1ccc(OC)c(-c2csc(NC(=O)Cc3cc(OC)c(OC)c(OC)c3)n2)c1	-15	i	-4	12	6	-6	-24	7
CCN(CC(=O)Nc1ccc(NC(C)=O)cc1)C(=O)/C=C/c1cccs1	8	i	-16	7	7	-1	2	6
COc1ccc(NC(=O)CSCc2ccccc2C)cc1	-9	i	-4	71	4	2	4	-113	eIF4H FP inh retest=2;PABP polyA inh retest=-3
CCOc1ccc(CCNC(=O)C2=C(C)C(=O)OC23CCCCC3)cc1OCC	/	i	-28	11	-2	-4	-2	31
CCOc1ccccc1NC(=O)CSc1nnc(NC(=O)c2ccco2)s1	-9	i	2	14	-14	-2	1	-2
CC(Sc1nnc(NCc2ccccc2)s1)C(=O)Nc1ccc2c(c1)C(=O)c1ccccc1C2=O (configuration not stated)	/	i	24	3	6	3	-1	-113
CC1(C)Oc2ccc(C(=O)NNC(=O)Nc3ccccc3)cc2NC1=O	0	i	/	-3	-3	/	/	0
CSc1nnc(C)c(/C=C/Nc2ccc(F)cc2F)n1	-6	i	-12	-21	17	-12	0	8
O=C(Nc1cccc(C(=O)N2CCCCC2)c1)C1CC1	-8	/	/	/	/	1	2	-1
CCOc1ccc(C(=O)NC(=S)Nc2cccc(S(=O)(=O)NC3=NCCC3)c2)cc1	/	i	39	2	2	2	-10	-98
CC(C)(C)c1[nH]nc2c1C(c1cccnc1)C(C#N)=C(N)O2 (configuration not stated)	-10	i	-22	3	-5	3	1	/
O=C(N/N=C/c1ccc(OC(=O)c2cccc(Br)c2)cc1)c1cccnc1	-14	i	/	0	-8	7	3	4
COc1ccccc1NS(=O)(=O)c1cc(N2Cc3ccccc3C2=N)ccc1N1CCOCC1	/	i	-9	26	-10	1	-4	-16
CC(C)CSc1ccc(S(=O)(=O)NCC(=O)O)cc1[N+](=O)[O-]	/	/	/	-11	-5	4	6	-3
OC[C@@H]1CN(Cc2cccs2)C[C@H](n2cnc3c(NCc4ccco4)ncnc32)O1	1	/	/	/	/	-2	-3	1
Cc1ccc(C(=O)NC(C)C2CC3CCC2C3)c(C)c1 (configuration not stated)	-1	i	-8	4	3	-2	-5	3
CCC[C@H]1CCCC/C=C\CCCC(=O)OCCN1C(=O)OC(C)(C)C	-8	/	-21	/	/	1	-2	39
S=C1NC[C@H](CC2CCCCC2)N1CCc1cccc2ccccc12	-32	i	21	0	5	6	-3	27
COc1ccccc1NC(=O)C(CCS(C)(=O)=O)N1C(=O)c2ccccc2C1=O (configuration not stated)	9	i	-1	-4	1	-4	9	-1

A stretch from further up, as a working copy:
SMILES	Yeast UUG start	Rce1 inhib	CSC inhib	PABP polyA inh	eIF4H FP inh	MT1-MMP act inh	MT1-MMP act inh RFP	Env fusion inh	others
COc1ccc(NC(=O)CSCc2ccccc2C)cc1	-9	i	-4	71	4	2	4	-113	eIF4H FP inh retest=2;PABP polyA inh retest=-3
CCOc1ccc(CCNC(=O)C2=C(C)C(=O)OC23CCCCC3)cc1OCC	/	i	-28	11	-2	-4	-2	31
CCOc1ccccc1NC(=O)CSc1nnc(NC(=O)c2ccco2)s1	-9	i	2	14	-14	-2	1	-2

Of the compounds above, three have a tert-butyl group:
SMILES	Yeast UUG start	Rce1 inhib	CSC inhib	PABP polyA inh	eIF4H FP inh	MT1-MMP act inh	MT1-MMP act inh RFP	Env fusion inh	others
CCc1ccc(N(CC(=O)NC(C)(C)C)C(=O)CCC(=O)Nc2ccccn2)cc1	-16	i	-10	0	16	-3	-1	3
CC(C)(C)c1[nH]nc2c1C(c1cccnc1)C(C#N)=C(N)O2 (configuration not stated)	-10	i	-22	3	-5	3	1	/
CCC[C@H]1CCCC/C=C\CCCC(=O)OCCN1C(=O)OC(C)(C)C	-8	/	-21	/	/	1	-2	39

By substructure, the entries above containing a COOH group.
SMILES	Yeast UUG start	Rce1 inhib	CSC inhib	PABP polyA inh	eIF4H FP inh	MT1-MMP act inh	MT1-MMP act inh RFP	Env fusion inh	others
Cc1nn(-c2ccc(F)cc2)c2sc(C(=O)O)cc12	-7	i	-14	0	-2	2	-1	/
CC(C)CSc1ccc(S(=O)(=O)NCC(=O)O)cc1[N+](=O)[O-]	/	/	/	-11	-5	4	6	-3

The main list resumes, repeating the two entries before the break.
SMILES	Yeast UUG start	Rce1 inhib	CSC inhib	PABP polyA inh	eIF4H FP inh	MT1-MMP act inh	MT1-MMP act inh RFP	Env fusion inh	others
S=C1NC[C@H](CC2CCCCC2)N1CCc1cccc2ccccc12	-32	i	21	0	5	6	-3	27
COc1ccccc1NC(=O)C(CCS(C)(=O)=O)N1C(=O)c2ccccc2C1=O (configuration not stated)	9	i	-1	-4	1	-4	9	-1
Cc1[nH]n(-c2ccccc2)c(=O)c1N=Nc1ccc(C#N)cc1	5	i	-5	-6	-2	5	3	27
O=C(NNS(=O)(=O)c1ccccc1[N+](=O)[O-])c1cccnc1	/	i	-3	-10	-5	-2	1	-1
COc1ccc(-c2cc(C(=O)N3CC(C)CC(C)C3)c3ccccc3n2)cc1OC (configuration not stated)	/	i	16	/	/	-2	-3	12
COc1ccc2c(CC(=O)OCC(=O)N3CCc4ccccc43)coc2c1	-17	i	-3	-5	7	4	3	-59
CCCCNC(=O)N1CCN(C(=O)c2ccco2)CC1	/	i	-14	6	-1	-2	2	-17
O=C(CNc1ccc2ccccc2c1)N/N=C/c1ccc([N+](=O)[O-])o1	-4	i	13	-8	27	-16	-1	-17
COc1ccc(N2CCN(c3oc(-c4ccco4)nc3C#N)CC2)cc1	-2	i	-1	13	100*	1	-3	-68	eIF4H FP inh retest=84*;PABP polyA inh retest=31
CC12CCC(C/C1=N\N=C1\NC(=O)/C(=C\c3cccc(Br)c3)S1)C2(C)C (configuration not stated)	/	i	105*	7	2	-2	-10	0
COc1ccc([N+](=O)[O-])cc1NC(=O)CCS(=O)(=O)c1ccc(Br)cc1	-14	i	-6	19	96*	8	3	-4	eIF4H FP inh retest=89*;PABP polyA inh retest=43
O=C(OCC(=O)N1CCN(C(=O)c2ccco2)CC1)c1ccccc1Cc1ccccc1	10	i	-9	8	-4	7	0	/
NNC(=O)c1cc2ccccc2cc1O	/	i	0	6	50	-2	-3	9
CCOc1ccc(OCC(=O)Nc2ccc(N3CCCCC3)cc2)cc1	-15	i	-1	9	10	1	2	-8
COc1ccc(Cl)cc1NC(=S)N(CCCN1CCOCC1)Cc1cn(C)c2ccccc12	-21	i	8	17	-10	-2	1	/
COc1ccc(N2CCN(C(=O)CSc3ncnc4c3cnn4-c3ccccc3C)CC2)cc1	/	i	8	7	-6	2	0	/
Cc1ccccc1NC(=O)Nc1ccccn1	-12	i	-2	-6	-4	0	-1	-18
Cc1ccc(-c2nnn(CC(=O)N(c3ccccc3F)C(C(=O)NC3CCCC3)c3ccncc3)n2)o1 (configuration not stated)	-19	i	-14	-6	-3	-1	5	-43

Screening results as filed in PubChem.
